Screening results deposited in PubChem by several laboratories.
Ecoli growth: blocks Escherichia coli growth. AID 1053175. 330,000 tested, 0.21% active. OD600 absorbance (no concentration beside the values). OD600, 23 h; hits give low values;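 active means OD600 absorbance below the run mean of sample wells minus 3.6 SD, in any replicate, cut at about 0.56 in these data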;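 further: stock transfer was 300 nL into about 60 µL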
UCH37 DUB inh: human UCH37 deubiquitinating enzyme inhibition. Q9Y5K5. 330,000 tested, 0.33% active. AID 588478. inhibition, % (concentration not given with the values). purified proteasome/UCH37, Ub-AMC cleavage fluorescence;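 active means mean of two replicates above 20%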;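 further: 0% = compound-free wells with enzyme and 100% = wells lacking proteasome; stock transfer was 100 nL into about 20 µL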
Target sequence (Q9Y5K5 whole entry, looked up): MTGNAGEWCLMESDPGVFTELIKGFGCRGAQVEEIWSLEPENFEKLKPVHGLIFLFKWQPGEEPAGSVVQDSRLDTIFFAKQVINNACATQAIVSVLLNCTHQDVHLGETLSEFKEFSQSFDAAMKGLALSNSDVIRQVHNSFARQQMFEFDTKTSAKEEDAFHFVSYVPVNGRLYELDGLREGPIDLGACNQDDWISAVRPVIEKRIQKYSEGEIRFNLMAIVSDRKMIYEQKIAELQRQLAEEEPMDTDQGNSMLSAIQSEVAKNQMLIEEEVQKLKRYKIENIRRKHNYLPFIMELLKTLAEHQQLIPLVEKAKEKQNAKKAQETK
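Assay system: Proteasome-bound UCH37. Buffer or medium: pH 7.4 Tris-HCl (50 mM) with ovalbumin, ATP-MgCl2, DTT. Incubation: 30 min preincubation with enzyme, 25 min cleavage at room temperature. Measured by: fluorescence, ex 355 nm, em 460 nm. Read-out basis: percent inhibition. Control set: wells without proteasome as full block, compound-free enzyme plus substrate as uninhibited.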
FGF22 binding: FGF22 (human) thermal shift binding; Q9HCT0; recombinant FGF22 thermal shift, SYPRO orange fluorescence; percent of sucrose octasulfate shift, DMSO zero; calls only at 9.99 µM; 340,000 tested, 1.5% active; AID 651658;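 active means melting point raised past a set limit in the mean and every replicate; inconclusive means no clear call; three in four hits are not shown here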
Target sequence (Q9HCT0 whole entry, looked up): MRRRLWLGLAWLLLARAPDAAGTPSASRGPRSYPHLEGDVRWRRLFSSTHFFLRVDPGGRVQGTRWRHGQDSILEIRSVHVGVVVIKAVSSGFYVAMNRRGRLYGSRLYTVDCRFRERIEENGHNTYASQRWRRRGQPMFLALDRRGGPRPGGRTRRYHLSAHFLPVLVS
RanGTP-Impb inh: disruptors of Ran-importin-beta complex formation – biochemical, FRET, CFP-Ran, YFP-importin-beta, homogeneous, primary screen. inhibition, % (test concentration not listed). AID 2216. 300,000 tested, 1.1% active. cell-free CFP-Ran/YFP-importin-beta FRET ratio;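 active means most replicates above 15%; inconclusive means exactly half above 15%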;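 further: 0% = DMSO wells and 100% = Ran loaded with GDP instead of GTP; wells of about 40 µL received 100 nL stock; the first replicate is given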
Vif TR-FRET: inhibitors of Vif binding to APOBEC3G peptide, primary screen, biochemical, TR-FRET, GST-Vif 1-94, biotin-A3G peptide, dose response retest (AID 1117319). TR-FRET GST-Vif / biotin-A3G peptide binding; higher % means a stronger effect; test concentration not given here; strong numbers were not always called active. inhibition, %; hits with a dose series show IC50 in µM. 260,000 tested, 0.57% active;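 active means above the screen mean plus three standard deviations and confirmed in dose response; inconclusive means results disagree or hit not tested in dose response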;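 further: Vif residues 1-94 fused to GST binding biotinylated APOBEC3G peptide 110-148; 0% = full assay without inhibitor and 100% = GST in place of GST-Vif; retest series ran down from 100 µM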
MLL AF4-AF9 inh: inhibitors of human MLL-AF4/AF9 interaction | inhibition, % at 10 µM | 350,000 tested, 0.47% active | AID 651704 | P42568 | AlphaScreen, biotin-AF4 peptide binding to FLAG-AF9;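 active means every replicate reaching a set inhibition limit, whatever the replicate mean, cut at about 25% in these data; inconclusive means mean inhibition reaches that limit but some replicates miss it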;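 further: 0% = plate neutral control median and 100% = total signal loss; the record names both 10 and 1 µM as test concentration; the first replicate is given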
HNF4A DNA FP: change in binding of human HNF4 alpha to DNA; HNF4a-FITC DNA binding, fluorescence polarization, 1 h; activity change, % at 10 µM; 360,000 tested, 0.3% active; in the data active means activity change above about 30%, passing the limit was not always enough;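 further: controls were the assay level and a saturating level of protein; the project sought stronger binding though the title names inhibitors; some compounds called inactive have numbers as strong as hits; positive values seem to mean higher polarization but the record does not say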
Target sequence (P41235 whole entry, looked up): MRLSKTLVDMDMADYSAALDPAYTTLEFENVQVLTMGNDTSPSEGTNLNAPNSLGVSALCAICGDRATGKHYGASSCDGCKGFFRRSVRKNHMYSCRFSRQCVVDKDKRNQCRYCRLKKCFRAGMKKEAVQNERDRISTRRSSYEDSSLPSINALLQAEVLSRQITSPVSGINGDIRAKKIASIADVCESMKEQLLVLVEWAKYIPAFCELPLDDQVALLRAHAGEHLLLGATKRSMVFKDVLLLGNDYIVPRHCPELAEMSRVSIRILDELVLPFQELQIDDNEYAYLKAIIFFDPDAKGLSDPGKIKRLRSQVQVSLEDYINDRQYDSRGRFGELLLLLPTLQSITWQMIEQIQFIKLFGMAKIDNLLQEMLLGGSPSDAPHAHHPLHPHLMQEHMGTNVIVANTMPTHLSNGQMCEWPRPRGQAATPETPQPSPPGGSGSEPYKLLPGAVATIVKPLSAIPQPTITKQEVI
Starred values were filed as active, the others as inactive; i = inactive; u = inconclusive; x = no result given; & = joins results of further samples.

SMILES	Ecoli growth	UCH37 DUB inh	FGF22 binding	RanGTP-Impb inh	Vif TR-FRET	MLL AF4-AF9 inh	HNF4A DNA FP
Cc1ccc(NC(=O)c2c(F)cccc2Cl)cc1NS(C)(=O)=O	0.691	0.1	i	0.6	u	2.2	-2.7
COc1ccc(C(=O)Oc2c(C)occc2=O)cc1OC	0.73	4.5	x	1.4	-0.5%	x	-0.4
OC1(c2ccccc2)C/C(=N\n2cnnc2)C=C1c1ccccc1 (stereo unspecified)	x	x	x	6.6	-0.3%	x	-1.1
CCOc1ccc(C(=S)N2CCN(C)CC2)cc1	0.618	3.4	i	-2.3	-21.4%	3.0	3.5
Cc1ccc(S(=O)(=O)N2CCN(C(=O)c3sccc3C)CC2)cc1	0.618	3.6	x	5.5	6.1%	0.2	4.7
CCC1=C(OC(=O)N(CC)CC)N2C(=O)OC(=NCCOC)[C@]2(Cc2ccccc2)[C@H]2C1=CC[C@H]1C(=O)N(CC)C(=O)[C@H]12	x	-0.5	i	3.2	x	x	2.1
COc1ccc(CNC(=O)C2=CCN(S(=O)(=O)c3ccc(C)cc3)CC2)cc1	0.73	0.1	i	0.6	-4.3%	-3.3	0.0
CCCc1cc(=O)[nH]c(SCC(=O)Nc2ccc(OCc3ccccc3)cc2)n1	0.683	0.5	i	x	-4.9%	0.9	0.1
CCCC(C)NC(=O)CN(c1ccc2c(c1)OCCO2)S(=O)(=O)c1ccccc1 (stereo unspecified)	0.721	5.2	i	0.5	x	1.6	3.9
COc1cc2c(CCNC(C)=O)c[nH]c2cc1O	0.703	-3.6	i	1.0	x	-2.3	2.8
CC(=O)C[C@H](O)CC(=O)[C@@H]1OC(=O)CCCCCCCCc2ccccc21	x	2.8	i	x	x	-1.3	-0.4
CCOC(=O)c1c(NC(=O)CSc2ncnc3ccccc23)sc(C)c1C	0.683	1.0	i	-1.7	-7.2%	-3.2	4.2
CCCCN(C)C(=O)CCCc1c[nH]c2ccccc12	0.707	0.4	x	0.1	u	x	-0.7
O=C(NN=C1CCC(c2ccccc2)CC1)c1cc2c(s1)CCCC2 (stereo unspecified)	0.651	-0.7	i	-3.8	x	1.4	-3.2
CN(CC(=O)Nc1ccccc1C(F)(F)F)C(=O)c1cc([N+](=O)[O-])ccc1N1CCOCC1	0.68	11.0	i	-1.5	x	-0.6	0.4
Cc1ccc(S(=O)(=O)N2CCOCC2)cc1NC(=O)COC(=O)Cc1ccsc1	0.715	3.8	i	-2.3	1.3%	-0.7	3.1
COC(=O)c1c(/N=C/NOCc2ccc(Cl)cc2)sc2c1CCN(c1ncc(C(F)(F)F)cc1Cl)C2	0.716	3.5	x	3.8	-3.8%	x	1.8
CC(C)C1CC(C(=O)Nc2ccccc2)C(=O)O1 (stereo unspecified)	0.658	-1.8	i	3.8	x	0.3	-1.9
Cc1ccc(S(=O)(=O)N2CCN(C(=O)CN3C(=O)NC4(CCCC4)C3=O)CC2)c(C)c1	0.677	2.8	i	0.6	2.8%	-0.6	0.3
CN(C)c1c([N+](=O)[O-])ncn1C	0.777	5.4	x	-1.2	-4.2%	x	-0.5
Cn1c(SCC(=O)NC(C)(C)C)nc(O)cc1=O	0.734	2.2	i	6.9	u	-49.3	-4.7
CC(=O)N1CCc2cc(NC(=O)C3(C)CCN3Cc3ccccc3Cl)ccc21 (stereo unspecified)	x	x	i	x	x	2.2	2.5
COc1ccccc1CNC(=O)COc1ccc(S(=O)(=O)N2CCOCC2)cc1	0.694	0.6	i	-0.8	0.1%	1.1	2.7
O=S(=O)(O)c1cc(Cl)cc(N=Nc2ccc(O)cc2O)c1O	x	x	x	x	49.4µM*	10.0	-47.5
COCCNC(=O)CN(CCc1ccccc1)S(=O)(=O)c1ccc(OC)cc1	0.721	2.6	x	-2.2	-4.1%	x	-3.3
COc1ccc(S(=O)(=O)N(C)C)cc1NC(=O)CSc1nc(N)cc(N)n1	0.709	1.4	i	-1.6	x	-1.0	0.3
CCCCCCCCN1C(=O)[C@H](CC(=O)NCc2cccc(C(F)(F)F)c2)C[C@@]2(C(=O)OC)CCCCC=C12	x	x	i	x	x	-0.8	-0.5
CN1CC(=O)N(CC(=O)Nc2cccc3ccccc23)C1=O	0.705	-1.6	i	x	x	-1.8	-0.3
COc1ccc(S(=O)(=O)N(C)c2ccc(C(=O)N3CCC(C(N)=O)CC3)cc2)cc1	0.676	1.3	x	9.4	-4.2%	x	0.9
O=C(NC(=S)NCCN1CCOCC1)c1ccccc1Br	0.7	1.4	i	-1.7	-10.7%	-0.3	1.9
Cc1ccc(OCC(=O)Nc2c[nH]c(=O)[nH]c2=O)cc1C	0.696	3.3	i	3.2	0.2%	-0.9	1.1
COc1ccc(-n2cccc2C=O)cc1	0.683	6.4	x	2.1	-13.9%	x	-1.3
CCN(C[C@H]1N[C@@](C)(C(=O)OC)[C@H]2C(=O)N(C)C(=O)[C@@H]12)C(=O)Nc1ccc(F)cc1	0.689	-2.3	i	x	-7.9%	-0.6	-2.8
CC(C)C1N(C(N)=S)N=CC1(C)C (stereo unspecified)	0.667	1.6	i	0.7	-0.7%	-2.1	3.1
O=C(CSc1nc2c(sc3ccccc32)c(=O)n1CCc1ccccc1)NCc1ccco1	0.694	-16.3	x	-2.0	-0.5%	x	-1.7
CCC(CC)C(=O)NC12CC3CC(CC(C3)C1)C2	0.768	1.2	x	2.2	-2.0%	x	-1.7
CCOC(=O)/C(=N\Nc1cc(Cl)ccc1Cl)N1CC(C)OC(C)C1 (stereo unspecified)	x	x	i	1.5	x	9.2	2.7
O=C1CN(C(=O)COC(=O)c2cccc(Br)c2)c2ccccc2N1	0.664	1.0	i	x	2.7%	-4.4	-3.1
COc1ccc(Cc2noc(COc3ccc(Cl)cc3)n2)cc1	0.663	3.8	x	-1.4	4.0%	x	-0.2
O=C1c2ccccc2C(=O)N1CCc1nc(-c2ccncc2)no1	0.716	1.0	x	4.2	6.5%	x	6.1

3 structures already listed, ordered by number of heavy atoms, smallest number first:
SMILES	Ecoli growth	UCH37 DUB inh	FGF22 binding	RanGTP-Impb inh	Vif TR-FRET	MLL AF4-AF9 inh	HNF4A DNA FP
CCC(CC)C(=O)NC12CC3CC(CC(C3)C1)C2	0.768	1.2	x	2.2	-2.0%	x	-1.7
CCN(C[C@H]1N[C@@](C)(C(=O)OC)[C@H]2C(=O)N(C)C(=O)[C@@H]12)C(=O)Nc1ccc(F)cc1	0.689	-2.3	i	x	-7.9%	-0.6	-2.8
O=C(CSc1nc2c(sc3ccccc32)c(=O)n1CCc1ccccc1)NCc1ccco1	0.694	-16.3	x	-2.0	-0.5%	x	-1.7

Continued:
SMILES	Ecoli growth	UCH37 DUB inh	FGF22 binding	RanGTP-Impb inh	Vif TR-FRET	MLL AF4-AF9 inh	HNF4A DNA FP
O=C(O)/C=C\C(=O)Nc1ccc(Oc2ccccc2)cc1	0.682	2.6	x	-2.5	10.8%	x	-1.6
COc1ccccc1NC(=O)CSC1CC(=O)N(c2ccc3c(c2)OCO3)C1=O (stereo unspecified)	0.704	0.4	x	2.4	2.6%	x	-0.8
CSc1cccc(NS(=O)(=O)c2ccc(-c3coc(C)n3)cc2)c1	0.672	7.1	i	4.8	x	-1.0	-2.5
Cc1cc(C)c(C)c(S(=O)(=O)N2CCN(C(=O)c3ccc4c(=O)n5c(nc4c3)CCC5)CC2)c1C	0.737	-1.0	i	0.3	0.1%	2.8	3.6
NC(=O)CC(CC(=O)OCc1ccccc1)c1ccccc1 (stereo unspecified)	0.703	0.2	i	u	-0.6%	2.9	-2.0
COc1cccc(C2c3[nH]c4ccccc4c3C[C@H]3C(=O)N(c4ccccc4C(=O)N4CCCC4C(=O)O)C(=O)N23)c1 (stereo partly specified)	0.768	2.2	i	4.2	x	-0.3	-17.2
COc1ccc(N2CCN(c3cc(C)c4cccc(C)c4n3)CC2)cc1	x	x	i	-1.0	0.6%	1.8	-2.0
CCOc1ccccc1NC(=O)CN1CCCCCC1	0.623	0.8	i	6.0	x	-2.6	1.6
CC(Oc1ccc(Cl)cc1Cl)C(=O)NCCCN(C)C (stereo unspecified)	0.671	2.1	i	4.9	4.5%	-3.6	0.4
CCN(CC)C(=O)CN1CCN(Cc2ccc3c(c2)OCO3)CC1	0.695	1.0	i	3.7	16.9%	-2.3	0.1
Cc1ccc(C2(CC(=O)Nc3nccs3)CCOC(C(C)C)C2)cc1 (stereo unspecified)	0.639	-1.6	x	0.5	6.7%	x	0.1
COc1ccc(Cc2nc3ccccc3n2CC(=O)N/N=C/c2ccc(C)cc2O)cc1OC	x	x	x	-1.6	32.7%	x	39.1*
CCNc1cc2c(cc1O)CCC1C2CCC2(C)C(O)CCC12 (stereo unspecified)	x	x	i	x	14.9%	0.6	0.2
Cc1cc(C(=O)C[N+]2(C)CCOCC2)c(C)n1-c1ccc(Br)cc1	0.734	44.7*	i	-0.7	x	7.6	1.1
CC1CC(C)(C)NC(=S)N1CCC(=O)N1CCc2ccccc21 (stereo unspecified)	0.735	0.3	x	10.2	7.4%	0.4	0.7
COc1ccc(NC(=O)CSc2n[nH]c(C)c2[N+](=O)[O-])cc1	x	x	i	4.1	x	-5.7	-1.4
O=C(c1ccc(N2CCNCC2)cc1)c1cccnc1	0.72	6.6	x	-0.9	-1.1%	x	1.4
CN1C=CC=C/C1=C(\C#N)c1nc2ccccc2[nH]1	0.71	12.0	x	u	2.2%	x	-2.5
Cc1cc(Br)cn2ccnc12	0.713	0.2	x	1.1	7.7%	x	0.7
O=C(Cn1c(=O)oc2ccccc21)Nc1ccc(Cl)cc1	0.679	4.3	i	3.0	x	1.3	-2.7
Cc1ccc2nc(SCC(=O)Nc3oc(C)c4c(C)n[nH]c(=O)c34)[nH]c2c1	0.678	-3.5	i	x	-5.8%	1.5	-3.6
COc1ccc(S(=O)(=O)N2CCOC23CCN(S(C)(=O)=O)CC3)cc1	0.635	-1.2	i	3.7	-5.1%	2.2	0.8
CC1CCN(C(=O)COC(=O)c2c[nH]c3ccccc23)CC1	0.614	3.1	i	x	x	0.2	2.2
Cn1c(=O)c(=O)n(C)c2cc([N+](=O)[O-])c(N3CCOCC3)cc21	0.669	5.1	i	3.2	x	1.5	1.5
COc1ccc(-c2csc(N(C)C(=O)c3cccs3)n2)cc1	0.704	4.1	i	2.0	-48.7%	1.2	2.5
O=C(NCc1ccc(Cl)cc1)C1CCN(S(=O)(=O)c2ccccc2)CC1	0.71	3.1	i	-1.9	-1.7%	-7.6	0.3
Cc1c(C(=O)N2CCC(C)CC2)sc2ncn(CC(=O)N3CCC(C)CC3)c(=O)c12	0.703	3.4	i	0.1	x	-7.4	2.2
COC(=O)Cc1ccc(NC(=S)NCc2ccc(F)cc2)cc1	x	-0.5	i	2.6	x	5.3	-3.2
CCOC(=O)C1=C(C)NC(SCC(N)=O)=C(C#N)C1c1ccncc1 (stereo unspecified)	0.706	-6.4	i	-3.0	5.0%&-2.5%	-1.1	-2.7&3.0
Cc1ccccc1C(=O)NNC(=O)c1cccc(Br)c1	0.683	0.8	i	0.2	-7.1%	3.9	4.8
C=C(C)Cn1cnc2c(oc3nc4c(cc32)CCCC4)c1=O	0.654	3.5	i	-1.3	3.8%	-0.7	1.1
CC1(C)CC(CC(=O)O)(c2ccc(F)cc2)CCO1 (stereo unspecified)	0.695	5.9	i	6.3	0.6%	-1.7	-0.8
NC(=O)c1nnn(Cc2cc(Cl)c(C(=O)c3ccc(Cl)cc3)c(Cl)c2)c1N	x	x	i	x	x	-1.4	1.8
CCOC(=O)c1c(C)cc(=O)oc1C	0.701	4.8	x	0.9	-4.8%	x	0.7
O=C(C1=C[C@H](c2ccc(Br)cc2)C[C@H](OCCCCO)O1)N1CCOCC1	x	0.9	i	-1.2	1.0%	-2.8&-0.4	-1.3

Only part of the results is shown; count on the stated rates, not on these rows.
